# High-throughput results from PubChem BioAssay.
# CDC25B CDK2 inh = human CDC25B-CDK2/CyclinA binding inhibition; z-score (concentration not given with the values); AID 1259370; actives 0.72% (n = 94,000); HTRF CDC25B-CDK2/CyclinA binding, anti-His/anti-Flag; stronger effect = higher value; P30305+P24941;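 further: score is relative to mean and SD of negative controls; strong numbers were not always called active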
# HIV TAR-Tat = HIV-1 TAR-Tat binding disruption; HIV-1 TAR RNA, Tat peptide displacement FRET; stronger effect = higher value; z-score (no concentration beside the values); actives 0.6% (n = 100,000); AID 1259389;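 further: score is relative to mean and SD of negative controls; some compounds called inactive have numbers as strong as hits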
# Starred values were filed as active, the others as inactive; / = no result given.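 How the source made its calls: active means z-score from 3 up in half or more of its runs; inactive means the rest.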
# Sample of the layout (2 entries):
cpd	Structure	CDC25B CDK2 inh	HIV TAR-Tat
1	CCCS(=O)(=O)/C(C#N)=C/c1cc(C(F)(F)F)cc(C(F)(F)F)c1	-0.31	/
2	Cn1cccc1-c1cnn2c1NC(=O)CC2	-0.97	2.4

# The list itself (from the top)
cpd	Structure	CDC25B CDK2 inh	HIV TAR-Tat
1	CCCS(=O)(=O)/C(C#N)=C/c1cc(C(F)(F)F)cc(C(F)(F)F)c1	-0.31	/
2	Cn1cccc1-c1cnn2c1NC(=O)CC2	-0.97	2.4
3	COc1ccc(S(=O)(=O)Nc2cc(Cl)c3oc(=O)sc3c2)cc1OC	-3.3	-0.04
4	COc1cc2c(cc1NC(=O)Nc1ccccc1)oc1ccccc12	-0.23	/
5	Cc1onc(-c2c(Cl)cccc2Cl)c1C(=O)OC1=CC(=O)CC(C)(C)C1	-0.44	/
6	Cc1cc(S(=O)(=O)NNc2ncnc3c2cnn3C)c(C)cc1Cl	-1	/
7	Cc1c2occ(-c3ccc4c(c3)OCO4)c2cc2c(-c3ccccc3)cc(=O)oc12	-1.7	/
8	COC(=O)c1ccc(COc2ccc3c(C)cc(=O)oc3c2)o1	-1.1	/
9	CCCNC(=O)CN1C(=O)CSc2sc(S(=O)(=O)N(C)C)cc21	/	1.7
10	CCN(CCS(=O)(=O)N1CCNCC1)S(=O)(=O)c1ccc(C)cc1	/	1.6
11	Cc1ccc(CNc2nc3ccccc3n3c(C)nnc23)cc1	5.5	2.1
12	Cc1ccc(-c2c(C(=O)O)nnn2-c2nonc2N)cc1	-0.37	-0.52
13	COc1ccc(N2CCN(Cc3cccn3-c3nnc(N4CCN(C)CC4)s3)CC2)cc1	/	-0.05
14	CCN(CC)CCNC(=O)Cn1nc(-n2cccc2)c2c(C)cc(C)nc21	/	-0.58
15	COc1ccc(C2SCCN2S(=O)(=O)c2ccccc2)cc1 (stereo unspecified)	-1.5	1.8
16	CN(Cc1ccco1)c1c(O)c(=O)c1=O	/	-0.68
17	O=C(CSc1ccc2nc(-c3ccccc3)cn2n1)N1CCOCC1	/	1.3
18	CC1=C(C(=O)N2CCc3ccccc3C2)C2(CCN(S(=O)(=O)c3cccs3)CC2)OC1=O	/	0.29
19	CCN1C(=O)C(=O)c2cc(Br)cc(C)c21	0.53	1.4
20	CC1(C)CC(=O)C2=C(C1)Nc1ccc3ccccc3c1C2c1ccccn1 (stereo unspecified)	-0.7	2.2
21	N/C(=N\OC(=O)c1c(F)cccc1F)c1cccc(-n2cccc2)c1	-1.9	/
22	Cn1c(=O)c(=O)n(C)c2cc(S(=O)(=O)N3CCCCCC3)ccc21	-2.3	/
23	CCCCCCC(=O)Oc1ccc(N2C(=O)CCC2=O)cc1	-1.2	1.8
24	O=C(CN1c2ccccc2S(=O)(=O)c2ccccc21)Nc1ccc(Br)cc1	/	0.58
25	N#Cc1nn(-c2ccccc2)c(=O)n(Cc2ccc(Cl)cc2Cl)c1=O	0.09	/
26	O=C(Nc1cccc(Cl)c1)Nc1nc(-c2nc3ccccc3[nH]2)cs1	-0.49	3
27	COC(=O)c1sc2ccccc2c1NC(C)=O	-0.81	/
28	CCOc1ccc2nc(SC3CC(=O)N(c4cccc(OC)c4)C3=O)sc2c1 (stereo unspecified)	0.04	0.44
29	COc1cccc2c1OC(CCSC)N1N=C(c3ccccc3O)CC21 (stereo unspecified)	-1	-2.2
30	COCCCn1c2c(c(=O)[nH]c1=O)C(c1ccc(F)cc1)C1=C(N2)c2ccccc2C1=O (stereo unspecified)	-1.7	-6.2
31	O=c1ccc(-c2ccc(S(=O)(=O)NCCCc3ccccc3)o2)n[nH]1	/	1.6
32	COc1ccc(C(=O)CSc2ccc3nnc(-c4ccc(F)cc4)n3n2)cc1	-0.87	/
33	CCc1nnc(SCc2ccccc2F)c2cc3sccc3n12	-7.5	1.9
34	CN(CCN1CCOCC1)C1CCN(C(=O)C2CCN(c3nc4ccccc4[nH]3)CC2)CC1	-1.1	0.84
35	CC(=O)N1CCOc2ccc(S(=O)(=O)Nc3cccc(C)n3)cc21	-1	1.5
36	O=S(=O)(c1ccc(Br)cc1)N1CCN(Cc2c(F)cccc2F)CC1	0.46	/
37	O=C(Cn1ncc2c([nH]c3ccccc32)c1=O)Nc1ccccc1Cl	/	4.3
38	Cc1cc(C)c(NS(=O)(=O)c2ccc3c(c2)NC(=O)CC(=O)N3)c(C)c1	-0.49	/
39	O=C(CSc1cn(CCNC(=O)c2cccs2)c2ccccc12)Nc1ccccc1F	-1.3	-1.2
40	COc1ccc(-c2nnc3c4cc5c(cc4n(Cc4ccccc4F)cc2-3)OCCO5)cc1	-1.6	-0.25

# Single records, from the list above. Order of values: CDC25B CDK2 inh | HIV TAR-Tat
# Record of CCOc1ccc2nc(SC3CC(=O)N(c4cccc(OC)c4)C3=O)sc2c1 (stereo unspecified) = 0.04 | 0.44
# Record of Cc1cc(C)c(NS(=O)(=O)c2ccc3c(c2)NC(=O)CC(=O)N3)c(C)c1 = -0.49 | /
# Record of COC(=O)c1sc2ccccc2c1NC(C)=O = -0.81 | /
# Record of Cn1c(=O)c(=O)n(C)c2cc(S(=O)(=O)N3CCCCCC3)ccc21 = -2.3 | /
# Record of O=C(Cn1ncc2c([nH]c3ccccc32)c1=O)Nc1ccccc1Cl = / | 4.3

# Continuation.
cpd	Structure	CDC25B CDK2 inh	HIV TAR-Tat
41	ClC1=NN(c2ccccc2)CC1	-0.93	/
42	CC(C)C(=O)NC(c1ccco1)c1cc(Cl)c2cccnc2c1O (stereo unspecified)	-2.9	/
43	CC(C)CC1C(C#N)=C(N)OC2=C1C(=O)CC(c1ccccc1)C2 (stereo unspecified)	-0.09	/
44	CCOC(=O)c1ccc2nc(C(F)(F)F)cc(N3CCC(C(=O)OCC)CC3)c2c1	4.3	/
45	O=C(Nc1cccc2c1CCCC2)C1CC2CSCN2C12C(=O)Nc1ccccc12 (stereo unspecified)	/	0.51
46	C=CCN1C(=O)C(O)(CC(=O)c2ccc(N)cc2)c2ccccc21 (stereo unspecified)	0.08	0.22
47	COC(=O)c1sc2ccccc2c1S(=O)(=O)Nc1ccccc1	/	0.02
48	Clc1ccc2nc(SCc3ccccc3)[nH]c2c1	-2	-0.21
49	O=C(c1ccc(Br)cc1)N1CCc2c([nH]c3ccccc23)C1c1cccnc1 (stereo unspecified)	/	2.6
50	Fc1cnc(N2CCOCC2)nc1NCc1ccccc1	0.53	/
51	O=S(=O)(NC(c1ccc(Cl)cc1)c1nnc(-c2ccccc2)o1)c1ccc(F)cc1 (stereo unspecified)	-2.1	-1.3
52	Cc1c(C(=O)N2CCN(Cc3ccc4c(c3)OCO4)CC2)sc2nc3n(c(=O)c12)CCCC3	/	1.2
53	O=C(Nc1nnc(-c2ccncc2)s1)C(=O)c1c[nH]c2ccccc12	-1.6	-1.4
54	CCc1cccc(C)c1NS(=O)(=O)c1cc(-c2csc(C)n2)ccc1C	/	2.5
55	CSc1nc(-c2ccco2)nn1C(=O)c1ccccc1	1.1	-0.27
56	Cc1nc(-c2csc(S(=O)(=O)N3CCN(C(c4ccccc4)c4ccccc4)CC3)c2)no1	/	2.6
57	CCNC(=O)c1c(NC(=O)c2csnn2)sc2c1CCCC2	-2.5	0.36
58	CCN1CCN(c2ncc(C(=O)NCCc3cccs3)c(C)n2)CC1	/	1.7
59	COc1ccc(OC)c(NC2=NS(=O)(=O)C(c3ccc(C(C)C)cc3)=C2C)c1	-1.7	-1.6
60	NCCC(O)(P(=O)(O)O)P(=O)(O)O	-0.94	/
61	COc1ccc2[nH]c3nc4ccccc4nc3c2c1	/	-0.91
62	O=C(CSc1nc(-c2ccccc2)nc2cc(=O)[nH]n12)Nc1ccc2c(c1)OCCO2	/	-1.4
63	C=CCc1ccccc1OCC(O)CNCc1ccco1 (stereo unspecified)	-1.2	/
64	N#C/C(=C\c1ccsc1Sc1ccc(Cl)cc1)C(=O)c1cccs1	-1.3	/
65	O=C(Nc1cccc(F)c1)C1C2C=CC3(CN(CCCN4CCOCC4)C(=O)C13)O2 (stereo unspecified)	1.6	/
66	FC(F)(F)c1ccncc1-c1nnc(C2CCCCC2)o1	-2.1	/
67	Cc1ccc(S(=O)(=O)NC2=NCN(Cc3ccccc3)CN2)cc1	-0.28	0.1
68	CCOc1ccc(-c2cccc(NS(=O)(=O)c3ccccc3)c2)nn1	/	-0.4
69	O=C1Cc2cc(S(=O)(=O)N3CCC(Cc4ccccc4)CC3)cc3c2N1CCC3	/	1.8
70	Cn1cnc2cc(Nc3nnc(-c4ccc(Cl)cc4)c4ccccc34)ccc21	-0.73	/
71	Cc1ccc(S(=O)(=O)Nc2ccc3[nH]c(=O)oc3c2)c(C)c1	/	1.1
72	O=C(c1cc2ccc3cccnc3c2[nH]1)N1CCN(c2ccccn2)CC1	/	1
73	Cc1ccccc1-c1oncc1-c1nnnn1-c1ccccc1	-1.6	/
74	COc1cccc(NC(=O)Nc2c(C)n(C)n(-c3ccccc3)c2=O)c1	-1.7	-0.21
75	O=C(c1cc2c(s1)-c1ccccc1S(=O)(=O)C2)N1CCCCC1c1cccnc1 (stereo unspecified)	-3.6	3.1
76	CCC(CO)NS(=O)(=O)c1cc(-c2nnc3c4ccccc4c(C)nn23)ccc1OC (stereo unspecified)	-1.2	0.71
77	CCOC(=O)c1[nH]c(C)c(C(=O)NCc2ccco2)c1C	-2.2	0.66
78	Cc1occc(=O)c1/C=C/O	/	1.2
79	O=C(Cn1cnc2c(nnn2Cc2ccc(Cl)cc2)c1=O)NC1CCCC1	0.34	-1.9
80	O=C1C2CCCN2C(=S)N1c1ccccc1 (stereo unspecified)	-1.2	/
81	CN(Cc1ccccc1)C(=O)Cn1ncc2c1-c1ccccc1OC2	-1.1	0.72
82	CC1CCN(S(=O)(=O)c2ccc3c(c2)CC(C)N3C(=O)C2CCC2)CC1 (stereo unspecified)	/	0.42
83	CN(CC(=O)Nc1ccc(Br)cc1F)S(=O)(=O)c1ccc2c(c1)CCC(=O)N2	-0.94	/
84	CCc1nn(CC(=O)NC2CCCCC2C)c(=O)c2cc3sccc3n12 (stereo unspecified)	-1.9	-0.36
85	CCOC(=O)CSc1nc(N)c2c3c(sc2n1)COC(C)(C)C3	-0.49	1.2
86	COc1cc2[nH]c3c(=O)n(CCCN4CCN(C)CC4)cnc3c2cc1OC	-0.25	/
87	Cn1cc(-c2nc3ccccc3s2)c(N)n1	-0.13	/
88	O=C1c2ccccc2C(=O)c2cc(NC(=O)C(c3ccccc3)c3ccccc3)ccc21	-4.1	/
89	O=C(NCCC1=CCCCC1)C1=Cc2sc3c(c2CS1)CCCC3	/	0.3
90	Cc1nn(C(C)C(=O)NCC(C)c2ccccc2)c(=O)c2c1sc1ccccc12 (stereo unspecified)	-0.74	3.1
91	CCOC(=O)c1c[nH]c2c(-c3ccccc3)c(C(F)(F)F)sc2c1=O	-2.2	/
92	Cc1c(CCNS(=O)(=O)c2cccs2)sc2nc(-c3ccc(Cl)cc3)nn12	/	1
93	O=C(O)c1ccc(COc2ccc3c4c(c(=O)oc3c2)CCC4)o1	-0.76	/
94	Cc1cc(C)c2oc(-c3ccc(C)c(NC(=O)c4ccc([N+](=O)[O-])o4)c3)nc2c1	-0.45	-0.02
95	O=C(N/N=C/c1ccc(O)cc1)N/N=C/c1ccc(O)cc1	-1.4	/
96	BrC1(Br)CC1(c1ccccc1)c1ccccc1	-0.31	/
97	Cc1cccc(C2CC(c3ccc(Cl)cc3)Nc3nc(N)nn32)c1 (stereo unspecified)	-0.56	-0.87
98	CCC(C)NC(=O)C1CCN(S(=O)(=O)c2ccc3c(c2)CC(C)N3C(=O)C2CCC2)CC1 (stereo unspecified)	/	0.02
99	COC(=O)c1cc(-c2ccncc2)nc2ccccc12	-0.84	0.93
100	COc1ccc(Nc2cc(C)nc3nc(-c4ccco4)nn23)cc1Cl	/	-2.1

# Down the list, as entered above.
# CDC25B CDK2 inh for nos. 89–96 → /, -0.74, -2.2, /, -0.76, -0.45, -1.4, -0.31

# New compounds follow.
cpd	Structure	CDC25B CDK2 inh	HIV TAR-Tat
101	CCc1cc2c(cc3c(=O)n(CC(=O)NCCC4=CCCCC4)nc(CC)n32)s1	-0.56	0.35
102	O=C(Cn1cc(C(=O)c2ccco2)c2ccccc21)Nc1ccc(Cl)cc1	3.4	-0.09
103	CC(C)Oc1ccccc1C1CC(=O)Nc2nc(SCc3ccc(Cl)cc3)[nH]c(=O)c21 (stereo unspecified)	-2.1	0.96
104	CCCCCOc1ccc(C2C(C(=O)OCC)=C(C)N=C3SC(C)C(=O)N32)cc1 (stereo unspecified)	-0.47	0.22
105	CCOc1cc(C2CC(=O)NC3=C2C(=O)CC(c2cccs2)C3)cc(Cl)c1O (stereo unspecified)	-0.33	2.1
106	Fc1cccc(CSc2nncn3c2cc2sccc23)c1	/	2.6
107	COc1ccccc1C1=NOC(Cn2c(NCc3ccccc3)nc3c2c(=O)n(C)c(=O)n3C)C1 (stereo unspecified)	-2	1.3
108	Cc1onc(-c2ccccc2)c1CN1CCOCC1	-4.4	/
109	O=C1CC(N2CCN(CCO)CC2)C(=O)N1c1ccc(Br)cc1 (stereo unspecified)	-1.6	-1.3
110	Cn1c(=O)oc2cc(S(=O)(=O)CCC(=O)N3CCN(c4ccccc4F)CC3)ccc21	/	2.3
111	O=C(CSc1nccn(-c2cccc(F)c2)c1=O)Nc1ccc(F)cc1	/	0.45
112	CC(C)(C)CC(=O)Nc1cc(C(F)(F)F)ccc1Cl	-3.9	/
113	COc1cccc(C2CC(=O)NC(SC)=C2C#N)c1 (stereo unspecified)	-1.3	1
114	CNS(=O)(=O)C1CCS(=O)(=O)C1 (stereo unspecified)	0.41	/
115	Cc1c(C(=O)NC2CCCCC2)oc2ccc3c(c12)C=CC(C)(C)O3	-0.61	2.5
116	COCCNc1nc2c(S(=O)(=O)c3ccccc3)nnn2c2ccccc12	-1.9	-0.34
117	Cc1ccc(S(=O)(=O)NCCC2=CCCCC2)cc1	-0.96	1
118	CCn1c(O)c(/C=N/N=C2CCCC2)c2ccc(C3=NNC(=O)CC3)cc21	-3.2	/
